STK33 kinase inh: blocks human STK33 kinase activity | Q9BYT3 | purified STK33, MBP phosphorylation, ADP-Glo luminescence | inhibition, % at 10 µM | 0.073% of 320,000 active | AID 2661;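 active = inhibition at or above 25%, using the most active replicate where run in duplicate; inactive = inhibition below 25%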
Target sequence (Q9BYT3 whole entry, looked up): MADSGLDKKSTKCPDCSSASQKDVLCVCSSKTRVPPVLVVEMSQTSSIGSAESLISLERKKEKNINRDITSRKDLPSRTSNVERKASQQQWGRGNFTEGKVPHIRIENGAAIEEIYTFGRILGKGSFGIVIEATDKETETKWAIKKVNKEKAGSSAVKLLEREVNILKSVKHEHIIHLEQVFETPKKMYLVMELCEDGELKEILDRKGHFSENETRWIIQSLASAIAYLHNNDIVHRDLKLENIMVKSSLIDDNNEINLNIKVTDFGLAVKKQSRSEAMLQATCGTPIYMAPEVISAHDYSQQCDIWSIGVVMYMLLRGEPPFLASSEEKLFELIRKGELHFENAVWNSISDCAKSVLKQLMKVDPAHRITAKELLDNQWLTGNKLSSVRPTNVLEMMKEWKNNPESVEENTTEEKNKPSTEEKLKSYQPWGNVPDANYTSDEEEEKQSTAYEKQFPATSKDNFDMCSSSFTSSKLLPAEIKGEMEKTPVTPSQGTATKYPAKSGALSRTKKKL
The depositor's hits bear a star. Only part of the results is shown, and most or all hits are left out here.

SMILES	STK33 kinase inh
CCCc1ccc(OCc2nc(-c3ccc(NC(=O)c4ccco4)cc3)no2)cc1	-1.1
Cc1c(/C=N\NC(=O)c2c[nH]c3ccccc23)cnn1C	0.3
COC(=O)c1[nH]c2ccccc2c1CN1CCOCC1	-0.5
Cc1ccc(Sc2nc([N+](=O)[O-])nn2C)cc1	-0.7
O=C(Nc1ccc(-c2csc(Nc3ccccc3)n2)cc1)c1ccccc1	-1.4
O=C(c1ccccc1F)N1CCN(C(=O)C(c2ccccc2)c2ccccc2)CC1	-0.1
O=C(O)c1c2c(nc3ccccc13)/C(=C/c1c(F)cccc1F)CCC2	-1.2
O=C(NC(N1CCOCC1)C(Cl)(Cl)Cl)c1ccccc1Cl (configuration not stated)	-1.7
CC1COc2ccccc2N1S(=O)(=O)c1ccc(Cl)cc1 (configuration not stated)	2.0
CC(C)Nc1nnc(SC(C)C(=O)Nc2ccc(Cl)cn2)s1 (configuration not stated)	1.4
COc1ccc(C=O)cc1COc1ccc(Cl)cc1[N+](=O)[O-]	-0.3
Cc1ccc(OC2CCN(C(=O)C3CCC(=O)N(C4CC4)C3)CC2)cc1 (configuration not stated)	2.7
CCOC(=O)C1CCCN(c2cc(=O)n(C3CCCCC3)c(=O)[nH]2)C1 (configuration not stated)	-0.5
COC(=O)c1sc(SC)c(S(=O)(=O)C(C)C)c1N/N=C(\C#N)C(=O)c1ccccc1	-1.3
O=C(c1ccco1)N1CCN(C(=O)c2cc3c(s2)-c2ccccc2OC3)CC1	-0.9
CC(=O)C1C(c2ccc(C)cc2)c2c(noc2C)CC1(C)O (configuration not stated)	0.3
CN1CCN(S(=O)(=O)c2cccc(C(=O)N(C)CC(=O)Nc3ccc(F)c(F)c3F)c2)CC1	-2.2
COC(=O)C1=C(C)N(c2cccc3ccccc23)C(=O)C1	-0.9
N#Cc1nc(COc2ccccc2)oc1N1CCCC1	-1.7
O=C(N/N=C/c1ccc(OCC(=O)N2CCCCC2)cc1)c1ccccc1O	0.5
C/C(CC(=O)Nc1cc(C)ccn1)=N\NC(=O)c1ccncc1	0.0
Cn1c(CC(=O)Nc2ccccc2Cl)nnc1SCC(=O)Nc1nncs1	0.4
COc1ccc(NC(=O)CSc2nc3[nH]c(=O)[nH]c(=O)c3s2)cc1OC	0.6
Cc1[nH]c2ccccc2c1CCN(Cc1cccnc1)C(=S)NC(C)(C)C	0.4
Cc1ccc(NC(=O)CCC(=O)NNC(=O)NC2CCCCC2)c(C)c1	0.0
(further entries)
SMILES	STK33 kinase inh
CCCC(=O)N1CCN(c2ccc(NC(=O)c3ccc(OCC)c([N+](=O)[O-])c3)cc2)CC1	-1.7
Cc1cccc2c1nc(-c1ccccc1)n1cnnc21	0.1
CCCN1C(=O)/C(=C\C=C2/C=CN(CC)c3ccccc32)SC1=S	-0.3
CC(C)n1cc(/C=N/Nc2ccc(Cl)c(C(=O)O)c2)c2ccccc21	-7.8
O=C1Nc2ccccc2C(O)(C(=O)NCc2ccc3c(c2)OCO3)N1c1ccc(Cl)c(Cl)c1 (configuration not stated)	-1.6
CCS(=O)(=O)N1CCN(S(=O)(=O)c2ccccc2[N+](=O)[O-])CC1	0.8
COc1ccc(CNC(=O)CCCn2nc(C)c([N+](=O)[O-])c2C)cc1OC	-1.8
Cc1cc(=O)oc2cc(NC(=O)C3CCCC3)ccc12	-0.2
COc1ccc(C)cc1NC(=O)c1cc2ccccc2cc1OCC(=O)NCc1ccco1	-0.4
COc1cccc(Nc2nnc(SCC(=O)N3CC(=O)Nc4ccccc43)s2)c1	0.2
Cc1ccc2[nH]c(CNC(=O)c3ccccc3F)cc2c1	-0.3
CN(C)C(=O)CCCCCCCCC(=O)N(C)C	0.4
COc1ccccc1OCC(=O)Nc1ccccc1C(=O)NCc1ccco1	-0.7
CN1CCc2nc(SCC(=O)Nc3ccc(OC(F)(F)F)cc3)c(C#N)c(-c3cccs3)c2C1	0.2
COC(=O)c1sc(NC(=O)CC(C)C)c(C(=O)OC)c1C	-2.0
Cc1ccc(Nc2nc(N)[nH]c(=O)c2N=O)cc1	-0.7
O=C(COC(=O)c1ccccc1)NC1CCCC1	-0.1
COCCN(Cc1cn(C)nc1-c1ccc(Oc2ccccc2)cc1)C(C)C	-8.7
CCOc1ccc(NS(=O)(=O)c2cc(C(=O)N3CCCC3)ccc2Cl)cc1	-0.5
O=C(NC1CCC(O)CC1)c1cccc2cccnc12 (configuration not stated)	-2.5
COc1ccc(CCNC(=O)c2ccccc2Cl)cc1OC	-1.2
CCOC(=O)C1Nc2c(cc(C(F)(F)F)cc2[N+](=O)[O-])C2c3ccccc3CC12 (configuration not stated)	0.2
CCCCNc1cnn(-c2ccccc2)c(=O)c1Cl	1.7
O=C(CCNC(=O)c1ccccc1Cl)Nc1cc(S(=O)(=O)N2CCOCC2)ccc1N1CCOCC1	1.0
CCC1(C)Cc2c(sc3nc(SC)nc(NCCN(C)C)c23)CO1 (configuration not stated)	0.3
Next structures.
SMILES	STK33 kinase inh
O=C(NC1CC1)C1=C[C@@H](c2ccccc2)C[C@@H](OCc2ccc(CO)cc2)O1	-1.4
c1ccc(CNCCC(Cc2ccccc2)c2ccco2)cc1 (configuration not stated)	-1.6
Cc1nc2nc(-c3ccc(Cl)cc3)[nH]n2c(=O)c1Cc1ccccc1	1.7
O=C(CSc1ccccc1)Nc1ccccc1C(=O)N1CCCC1	-0.1
CC1(C)CC(NC(=O)c2ccc(Cl)c(S(=O)(=O)N(Cc3ccccc3)c3ccccc3)c2)CC(C)(C)N1	-0.8
CC1(C)CC(=O)c2cc(C(=O)NCc3ccco3)c(=O)n(-c3ccccc3)c2C1	-1.8
Cc1ccc(CN2CCN(Cc3cc4ccccc4o3)CC2CCO)cc1 (configuration not stated)	-1.2
COc1cccc2cc(C(=O)NCc3ccc(Cl)cc3)c(=O)oc12	-0.7
CCOCCOC(=O)C1=C(C)N(C)C(=O)NC1c1cc(Cl)c(O)c(OC)c1 (configuration not stated)	-3.3
Cc1nnc(CN(C)C(=O)c2cc(COc3ccc(F)cc3Cl)on2)o1	-0.4
C=CCNC(=O)CN1CCC(n2nnc3cc(C(F)(F)F)ccc32)CC1	-0.3
O=C(Nc1cc(S(=O)(=O)N2CCOCC2)ccc1O)c1ccc2c(c1)S(=O)(=O)c1ccccc1C2=O	-0.5
Cc1cccc(N(C(=O)c2snc(C(N)=O)c2N)C(C(=O)NCc2ccccc2)c2ccncc2)c1 (configuration not stated)	-1.0
O=C(Nc1nc2ccccc2s1)c1cccc(N2C(=O)CCC2=O)c1	2.0
CC1(C)C(=O)OC(c2ccccc2)C2(CCCC2)C1=O (configuration not stated)	-1.4
COc1ccc(CN2CCCN(C)CC2)c(OC)c1C	-2.2
COC(=O)CN(c1ccc(C(C)C)cc1)S(=O)(=O)c1c(C)[nH]c(=O)[nH]c1=O	0.2
Cc1ccc(-n2ncc3c(NCc4cccnc4)ncnc32)cc1C	-0.9
CCc1nnc(NC(=O)CSc2nc3c(cc2C#N)CCCC3)s1	-2.8
Cc1ccc(NC(=O)C2CCCN2C(=O)c2cccs2)c(C)c1 (configuration not stated)	0.0
CCOC(=O)c1c(C)[nH]c(C(=O)OCC(=O)NC2CCS(=O)(=O)C2)c1C (configuration not stated)	-2.2
CCOc1ccc(S(=O)(=O)N2CCOCC2)cc1NS(=O)(=O)c1ccc(OC)c([N+](=O)[O-])c1	-1.6
Cc1ccc(S(=O)(=O)N/N=C/c2cccc3c2OCCO3)cc1	-1.0
CCNC(=S)N1CCN(c2ccc([N+](=O)[O-])cc2)CC1	-0.8
CCOC(=O)c1ccccc1NC(=O)c1ccc2c(=O)n3c(nc2c1)CCCCC3	-1.8
The list goes on.
SMILES	STK33 kinase inh
CCC(C)C(NC(=O)c1ccccc1NC(=O)c1ccco1)C(=O)NC1CCCCC1 (configuration not stated)	-0.7
COCCNC(=O)c1cn(C)c2ccc(S(=O)(=O)N(C)C3CCCCC3)cc2c1=O	-1.6
Cc1cccc(Nc2nnc(SCC(=O)NC3CCCc4ccccc43)s2)c1 (configuration not stated)	-0.4
CCCCC(CCC(=O)Nc1cccc([N+](=O)[O-])c1)C(=O)O (configuration not stated)	-0.6
CCOC(=O)c1sc(=S)n(C)c1NC(=O)c1ccc(OC)cc1	-1.5
O=C(CSc1n[nH]c(-c2ccncc2)n1)c1cccc([N+](=O)[O-])c1	4.3
C#CCNc1ccc(C(=O)OCC)cc1	-0.1
COc1ccc(NC(=O)Cn2c(=O)sc3ccccc32)c(OC)c1	-0.9
COc1ccccc1NS(=O)(=O)c1cc(NC(=O)c2cccs2)ccc1N1CCCC1	-0.1
CCCCN(C(=O)c1cccc(S(=O)(=O)N2CC(C)OC(C)C2)c1)c1c(N)n(CC(C)C)c(=O)[nH]c1=O (configuration not stated)	-1.9
CCOC(=O)c1ccccc1-n1c(C)cc(C2N=C(N)Nc3nc4ccccc4n32)c1C (configuration not stated)	-1.2
O=C(NCc1cccs1)c1cc(-c2ccccc2)on1	0.5
O=C1CCC(=O)N1c1ccc(-c2nc3ccccc3s2)cc1	0.8
O=Cc1cccn1-c1nccc(-c2ccco2)n1	1.1
Fc1ccc(C2CC(c3ccco3)n3ncnc3N2)cc1 (configuration not stated)	1.0
COCCCNC(=O)c1cc(C(=O)c2c(-c3c(Cl)cccc3Cl)noc2C)c[nH]1	-1.1
O=C(O)c1cc2cccc(S(=O)(=O)N3CCOCC3)c2cc1O	1.7
Cc1ccc(-n2nnnc2SCC(=O)N2Cc3ccccc3CC2C(=O)O)cc1 (configuration not stated)	-1.3
COc1cccc(/C=c2\s/c(=C\C(=O)C(C)(C)C)[nH]c2=O)c1	0.6
Cc1ccc2cc(CN(Cc3ccco3)C(=S)NCC3CCCO3)c(=O)[nH]c2c1 (configuration not stated)	-0.1
Cc1ccc(OCC(=O)Nc2ccc(N3CCOCC3)cc2)cc1	-0.5
CCCCNC(=O)Cn1nc([N+](=O)[O-])c([N+](=O)[O-])c1C	-1.3
Clc1ccc(-c2nnc3sc(Cc4cccs4)nn23)c(Cl)c1	0.6
CC(C)CCN1CC(C(=O)N2CCN(c3ccc(F)cc3)CC2)CC1=O (configuration not stated)	-0.4
CCOc1cccc(C(=O)NNC(=O)CCC(=O)O)c1	1.1

Reprinted from the results shown for reference:
SMILES	STK33 kinase inh
CCOC(=O)c1sc(=S)n(C)c1NC(=O)c1ccc(OC)cc1	-1.5
O=C(CSc1n[nH]c(-c2ccncc2)n1)c1cccc([N+](=O)[O-])c1	4.3
C#CCNc1ccc(C(=O)OCC)cc1	-0.1
COc1ccc(NC(=O)Cn2c(=O)sc3ccccc32)c(OC)c1	-0.9
COc1ccccc1NS(=O)(=O)c1cc(NC(=O)c2cccs2)ccc1N1CCCC1	-0.1
CCCCN(C(=O)c1cccc(S(=O)(=O)N2CC(C)OC(C)C2)c1)c1c(N)n(CC(C)C)c(=O)[nH]c1=O (configuration not stated)	-1.9
CCOC(=O)c1ccccc1-n1c(C)cc(C2N=C(N)Nc3nc4ccccc4n32)c1C (configuration not stated)	-1.2
O=C(NCc1cccs1)c1cc(-c2ccccc2)on1	0.5
O=C1CCC(=O)N1c1ccc(-c2nc3ccccc3s2)cc1	0.8
O=Cc1cccn1-c1nccc(-c2ccco2)n1	1.1
Fc1ccc(C2CC(c3ccco3)n3ncnc3N2)cc1 (configuration not stated)	1.0
COCCCNC(=O)c1cc(C(=O)c2c(-c3c(Cl)cccc3Cl)noc2C)c[nH]1	-1.1
O=C(O)c1cc2cccc(S(=O)(=O)N3CCOCC3)c2cc1O	1.7
Cc1ccc(-n2nnnc2SCC(=O)N2Cc3ccccc3CC2C(=O)O)cc1 (configuration not stated)	-1.3
COc1cccc(/C=c2\s/c(=C\C(=O)C(C)(C)C)[nH]c2=O)c1	0.6
Cc1ccc2cc(CN(Cc3ccco3)C(=S)NCC3CCCO3)c(=O)[nH]c2c1 (configuration not stated)	-0.1
Cc1ccc(OCC(=O)Nc2ccc(N3CCOCC3)cc2)cc1	-0.5
CCCCNC(=O)Cn1nc([N+](=O)[O-])c([N+](=O)[O-])c1C	-1.3
Clc1ccc(-c2nnc3sc(Cc4cccs4)nn23)c(Cl)c1	0.6

Following part.
SMILES	STK33 kinase inh
O=C1C2CCCN2C(c2cccc(Br)c2)N1c1ccc(F)cc1 (configuration not stated)	0.8
CCC(=O)Nc1ccc(Cl)c(NC(=O)c2ccc([N+](=O)[O-])cc2)c1	-0.3
Cc1ccc(/C=N/Nc2nc3ccccc3[nH]2)s1	11.5
O=C1N(Cc2cccnc2)C[C@@H]2C[C@@H](c3ccc4nonc4c3)N3CCC[C@@]123	-0.2
CCC(=O)Nc1ccc(NC(=O)c2oc3ccccc3c2C)cc1	0.1
CCC(CC)C(=O)Nc1cccc(S(=O)(=O)c2cccc(NC(=O)C(CC)CC)c2)c1	0.8
COc1cccc(NC(=O)CCNS(=O)(=O)c2ccc3c(c2)oc(=O)n3C)c1	-1.1
O=C(Nc1ccccc1F)N1CCC(NC(=O)C23CC4CC(CC(C4)C2)C3)CC1	-1.0
NS(=O)(=O)c1cccc(NC(=O)c2ccno2)c1	-0.1
COC(=O)c1ccc(NC(=S)NC2CCc3ccccc32)cc1 (configuration not stated)	-0.7
O=[N+]([O-])c1cc(S(=O)(=O)C(F)(F)F)ccc1N1CCN(c2ccccc2)CC1	0.1
O=C(NC1CCN(C(=S)NCCc2ccccc2)CC1)C1CC1	0.1
N#Cc1ccc(COC(=O)c2cc(=O)c3ccccc3o2)cc1	-1.6
Cc1ccc(-c2nn3c(C)nnc3s2)cc1NC(=O)COc1ccc(Cl)cc1	-1.9
Cc1ccc(C)c(NS(=O)(=O)c2ccc(-c3cnc(C4CC4)o3)cc2)c1	0.2
Cn1c(=O)c(Oc2cc(Cl)cc(Cl)c2)nc2ccccc21	-0.3
CSC(=S)N/N=C(\C)c1ccccc1	0.8
O=C(N/N=C/c1cccnc1)c1cccc(Cl)c1	-1.0
N#C/C(=C\c1ccc(N2CCOCC2)o1)C(=O)Nc1ccc(O)cc1	-0.3
O=C(N/N=C/c1cccc(C(F)(F)F)c1)c1ccccc1O	-1.3
CCOC(=O)c1ccc(NC(=O)COc2ccccc2OC)cc1	-1.1
CCOC(=O)C1(Cc2ccc(OC)cc2)CCN(C(=O)CCc2cnccn2)CC1	2.3
Cc1ccc(S(=O)(=O)N2CCCCC2)c2nsnc12	-1.6
CCCCN(C)C(=O)c1cn(C)c2ccc(S(=O)(=O)N(C)C)cc2c1=O	-0.8
CC(C)c1ccc(OCc2nnc(SCC(=O)N3CCCCC3)o2)cc1	-0.4
COc1cccc(OCc2cc(C(=O)N(C)C3CC(C)(C)NC(C)(C)C3)no2)c1	-1.5
